# Source: PubChem
# H5N1 antiviral – MDCK cell protection from H5N1 avian flu; AID 740; cytopathic effect, luminescence, 72 h; hits give high values; no value below 0 was filed and about half of the inactive calls have no number; reference of the scale not given here; 96,000 compounds, 0.07% hits; inhibition, % at 50 µM; in the data active = inhibition above about 25%
# Active calls of the source: *; i = inactive. A portion of the library, so the mix of outcomes need not match the whole.
SMILES,H5N1 antiviral
O=C1C2CCCN2C(c2cccc(Cl)c2)N1c1ccccn1 (stereo not drawn),i
CC(C(=O)NCc1ccccn1)N1C(=O)c2ccccc2C1=O (stereo not drawn),0.4
O=C(Cc1c(F)c(F)c(F)c(F)c1F)OC12CC3CC(C1)C(=O)C(C3)C2,i
CCN(c1ccccc1)S(=O)(=O)c1ccc(C(=O)Nc2nnc(COC)o2)cc1,0.5
CCOC(=O)/C(C#N)=C/C1=C(N2CCCC2)CC(C)(C)OC1,0.5
Cc1cccc(NC(=O)COC(=O)CNC(=O)C2CCCCC2)c1,0.4
CN(Cc1ccccc1)c1nc(N)c([N+](=O)[O-])c(Nc2cccc(F)c2)n1,0.1
CCOC(=O)c1ccccc1OCc1cc(/C=N/n2cnnc2)ccc1OC,i
COc1ccc(S(=O)(=O)c2c(N)n(Cc3ccco3)c3nc4ccccc4nc23)cc1,1.6
N/C(=N\OC(=O)CC1CCCCC1)c1cccnc1,0.2
Cc1ccc(N(CC(=O)N/N=C/c2cc(C)n(-c3ccccc3)c2C)S(C)(=O)=O)c(C)c1,i
CCN1CCN(c2ncc(C(=O)Nc3c(F)cc(F)cc3Br)c3ccccc23)CC1,i
CCN(CCCNC(=O)COc1cc(=O)n(C)c2ccccc12)c1ccccc1,1.8
C=CCSc1nc2c(c(=O)[nH]c(=O)n2C)n1C/C=C(/C)Cl,4.5
COc1cccc(Nc2nc(-c3cccc(N4C(=O)c5ccccc5C4=O)c3)cs2)c1,0.8
CCOC(=O)N1CCN(S(=O)(=O)c2ccc(C)c(C)c2C)CC1,0.2
CCNc1nnc(-c2ccccc2OC)s1,i
COCCCN1Cc2ccccc2C1=N,i
O=C(NCc1ccco1)c1ccc(COc2ccccc2Cl)cc1,0.5
CC(=O)Nc1ccccc1-c1nc2ccccc2nc1OCC(=O)c1ccc2ccccc2c1,i
CCn1cnc2c1c(=O)n(Cc1nnc3n1-c1ccccc1SC3)c(=O)n2Cc1ccccc1,0.8
COC(=O)c1ccc(C)c(NS(=O)(=O)c2ccc(OC)c(OC)c2)c1,0.2
CN1C(=O)NC(c2ccccc2)C2=C1CN(CCc1ccccc1)C2=O (stereo not drawn),0.2
CCOC(=O)c1nnn(-c2nonc2N)c1CSc1ccccc1,2.0
Cc1ccc(NC(=O)Cn2c(C)cc(C)c(C#N)c2=O)c(Cl)c1,i
Cn1nnc2c(sc3nc(N4CCOCC4)c4c(c32)CCCC4)c1=O,0.6
COC(=O)c1[nH]c2ccc(C)cc2c1NS(=O)(=O)c1ccc(F)c(C)c1,i
CC(=O)Nc1nc(-c2ccc(Br)s2)cs1,i
CCOc1ccc2c(c1)sc(=NC(=O)C1CC1)n2C,i
CCCS(=O)(=O)N1CCC(C(=O)NCCN(C)Cc2ccccc2)CC1,i
CCOC(=O)N1CCC(NC(=O)C2CCCN(C(=O)N3CCOc4ccccc43)C2)CC1 (stereo not drawn),i
Cc1cc(NC(=O)CSc2nnnn2C2CCCC2)no1,0.3
CCC(NS(=O)(=O)c1c(C)[nH]c(=O)[nH]c1=O)C12CC3CC(CC(C3)C1)C2 (stereo not drawn),0.8
CS(=O)(=O)N(CC(=O)Nc1ccc(Cl)c(Cl)c1)C1CCCCC1,4.0
CS(=O)(=O)N(CC(=O)N1CCc2ccccc2C1)c1ccc2c(c1)OCO2,0.0
CCOC(=O)n1c(=O)oc2cc(S(=O)(=O)N3CCOCC3)ccc21,i
N/C(=N\OC(=O)Oc1ccccc1)c1ccc(Br)cc1,2.4
Cc1cccc(-n2c(N)cc(=O)nc2SCC(=O)Nc2nnc(CC(C)C)s2)c1,0.5
COc1ccc(CN(Cc2cc3cc4c(cc3[nH]c2=O)OCO4)C(=O)NC2CCCCC2)cc1,i
CCOC(=O)N1CCC(NC(=O)Cn2cc3c(n2)CCCC3)CC1,0.8
O=C(c1cc(-c2ccccc2Cl)on1)N1CCN(C(=O)c2ccco2)CC1,i
COc1ccccc1CNC(=O)CCCOc1cc(=O)n(C)c2ccccc12,2.9
CCOC(=O)c1c(C)n(C)c2ccc(O)c(CN3CCC(C)CC3)c12,i
COc1ccc2c(C)cc(SCC#N)nc2c1,i
CCOc1ccc(-n2c(=O)[nH]cc(C(=O)N3CCc4ccccc43)c2=O)cc1,i
O=C1C(Cl)=C(NCC2CCCO2)C(=O)N1C1CCCCC1 (stereo not drawn),0.3
O=c1cc(CN2CCOCC2)c2c(ccc3ccccc32)o1,1.3
CC1Cc2ccccc2N1C(=O)C1CCN(S(=O)(=O)c2cccs2)CC1 (stereo not drawn),0.3
CCn1nc(C)c(NC(=O)CCCSc2nc(-c3ccco3)cc(C(F)(F)F)n2)c1C,0.2
Cc1ccc2c(c1)NC(C(C)(C)C)CO2 (stereo not drawn),0.1

# Grouped by structure, the compounds so far containing two or more sulfur atoms
SMILES,H5N1 antiviral
CC(=O)Nc1nc(-c2ccc(Br)s2)cs1,i
Cc1cccc(-n2c(N)cc(=O)nc2SCC(=O)Nc2nnc(CC(C)C)s2)c1,0.5
CC1Cc2ccccc2N1C(=O)C1CCN(S(=O)(=O)c2cccs2)CC1 (stereo not drawn),0.3

# (continued)
SMILES,H5N1 antiviral
N#Cc1c(-c2ccccc2)ccn(Cc2ccc(Cl)cc2)c1=O,i
CCOc1ccc(OCCN2C(=O)NC(Cc3c[nH]c4ccccc34)C2=O)cc1 (stereo not drawn),i
CCNc1nc(Cl)nc(NCc2ccccc2)n1,i
COc1ccc(C(c2nnnn2Cc2ccccc2)N2CCN(C(=O)c3ccco3)CC2)cc1OC (stereo not drawn),2.2
NC(=O)CSc1nc(N)c2c3c(sc2n1)CCCCC3,0.2
CSc1ncccc1C(=O)OCC(=O)NC(N)=O,0.1
COCCN(C(=O)c1csnn1)C(C(=O)NC1CCCCC1)c1sccc1C (stereo not drawn),1.0
CC1=Nc2ccccc2/C1=C\c1nc(-c2ccccc2)oc1O,i
CCOC(=O)C1CCCN(C(=O)CCNS(=O)(=O)c2ccc3c(c2)CCC(=O)N3)C1 (stereo not drawn),i
Cc1csc(NC(=O)Cc2nn(C)c(=O)c3ccccc23)n1,3.9
CCOC(=O)COn1c(=O)c[n+]([O-])c2ccccc21,1.9
Cn1c(NCc2cc(Br)ccc2O)nc2ccccc21,i
Cc1ccsc1C(=O)OCC(=O)NCc1ccc2c(c1)OCO2,i
Cc1c(C(=O)NCC2CCCO2)oc2ccc(S(=O)(=O)N3CCCC3)cc12 (stereo not drawn),1.5
Cc1cc(C)c(C)c(OCCCn2ccnc2)c1,i
Fc1ccc(C2=CCN(C(c3cccs3)c3nnnn3CCc3ccccc3)CC2)cc1 (stereo not drawn),1.2
CNCc1ccccc1Sc1ccc(OC)cc1,0.0
COc1ccc(-n2c(-c3cnccn3)n[nH]c2=S)cc1,0.9
O=C(O)CCc1ccc(-c2cccs2)n1NC(=O)c1ccc(Cl)cc1,1.1
O=C1CCC(C(=O)N(c2ccccc2)C2(C(=O)NC3CCCCC3)CCCCC2)N1 (stereo not drawn),i

# The closing four compounds of the part above open the next one.
SMILES,H5N1 antiviral
CNCc1ccccc1Sc1ccc(OC)cc1,0.0
COc1ccc(-n2c(-c3cnccn3)n[nH]c2=S)cc1,0.9
O=C(O)CCc1ccc(-c2cccs2)n1NC(=O)c1ccc(Cl)cc1,1.1
O=C1CCC(C(=O)N(c2ccccc2)C2(C(=O)NC3CCCCC3)CCCCC2)N1 (stereo not drawn),i
CC(=O)Oc1c(Cl)c(N2CCOCC2)c(OC(C)=O)c2ccccc12,0.3
C=CCNc1nc(Nc2ccc(OC)cc2OC)nc(OCC)n1,i
CCOc1ccccc1NC(=O)CN(c1ccc(OC)cc1)S(=O)(=O)c1c(C)noc1C,i
CC(C)CC1NC(=O)N(CC(=O)N2CCN(S(=O)(=O)c3ccc4ccccc4c3)CC2)C1=O (stereo not drawn),0.1
CCOC(=O)C(NC(C)=O)(Nc1ccc(S(=O)(=O)Nc2nccs2)cc1)C(F)(F)F (stereo not drawn),0.8
CC(C)COC(=O)c1ccc2c(c1O)C(=O)c1ccccc1C2=O,i
COc1ccc(C(=O)NCCSCc2ccc(C)cc2)cc1,0.2
C=CCn1c(SCC(=O)N2CCCC2)nc2scc(-c3cccs3)c2c1=O,i
COc1ccc(Br)cc1/C=N/NC(=O)c1ccc(COc2ccc3c(c2)CCC3)o1,i
Cc1ccc(NC(=O)c2ccc(OC(=O)c3ccco3)cc2)cc1,3.0
O=C(c1cc(S(=O)(=O)N2CCOCC2)ccc1F)N1CCN(Cc2ccccc2)CC1,0.5
Cc1nn(Cc2ccc(F)cc2)c(C)c1NC(=O)c1cnn2c1NC(c1ccccc1)CC2C(F)(F)F (stereo not drawn),i
CC(=O)c1ccc(NC(=O)N[C@@H](Cc2ccccc2)C(=O)O)cc1,i
CCOC(=O)N1CCC(NC(=O)c2cc(C(=O)NCC(OC)OC)ccc2CO)CC1,i
Cc1cc2nc(C3CCCN(C(=S)Nc4ccccc4C)C3)[nH]c2cc1C (stereo not drawn),1.2
CCCCCCn1c(COc2ccccc2F)nnc1SCC(=O)N1c2ccccc2NC(=O)C1(C)C,i
CCOc1ccc2[nH]c(=O)c(CN(CCO)C(=O)CC)cc2c1,i
O=C(c1ccccc1)C(Cn1cncn1)C(Sc1ccccc1)c1ccccc1 (stereo not drawn),i
Cc1cc(C)n2nc(SCC(=O)N(C)C)nc2n1,0.3
Cc1ccc(C)c(N2CCN(S(=O)(=O)c3ccc4c(c3)CCC(=O)N4)CC2)c1,i
CC(C)(C)C(=O)COC(=O)c1cccc(NC(=O)c2ccco2)c1,i
C=CCn1c(CCCOc2ccc(Cl)cc2Cl)nnc1SCC(=O)Nc1nccs1,i
Cc1ccc(N=Cc2cccc(O)c2O)c(C)c1,6.4
COc1ccc(NC(=O)c2ccc3c(c2)OCO3)cc1Cl,i
C=CCn1c(-c2ccoc2)n[nH]c1=S,1.5
CCOC(=O)c1c(C)[nH]c(N=Nc2ccc(C)cc2C)c1C,i
CCc1ccccc1NC(=O)CCc1nc(-c2ccc(C)cc2)no1,0.7
CCC(C(=O)Nc1ncn[nH]1)(C(F)(F)F)C(F)(F)F,i
CC1(C)COC(c2cc([N+](=O)[O-])ccc2Cl)=N1,i
Cc1ccc(CCN2CC(C(=O)NCc3ccco3)CC2=O)cc1 (stereo not drawn),i
COc1ccc(-c2cc(O)cc(O)c2)cc1,0.9
CC1(C)SC(=S)N(Cc2ccc3c(c2)OCO3)C1N(O)C(=O)NC1CCCCC1 (stereo not drawn),6.5
CCOc1ccc(-n2nnnc2SCC(=O)c2ccccc2)cc1,0.6
COc1ccccc1OCC(=O)Nc1cccc(C(=O)N2CCOCC2)c1,0.3
COc1ccc(Cc2nnc(SCC(=O)NCC3CCCO3)o2)cc1 (stereo not drawn),0.2
Cc1oc(-c2cccs2)nc1CS(=O)CC(=O)NCCCOC(C)C (stereo not drawn),i
NC(=O)C[C@@H]1N[C@]2(C(=O)Nc3ccccc32)[C@@H]2C(=O)N(C3CCCCC3)C(=O)[C@H]12,0.2
O=C(CSc1nn(-c2ccccc2)c(=S)s1)Nn1cnnc1,i
N#CC1=C2SCC(O)(c3ccccc3)N2C(=O)CC1c1ccccc1 (stereo not drawn),i
COc1ccc(N2C(=O)CSC23CCC(C(C)(C)C)CC3)cc1 (stereo not drawn),1.2
O=C1Nc2cc(C(=O)N3CCN(Cc4ccccc4)CC3)ccc2SC1N1CCOCC1 (stereo not drawn),i
O=C1[C@@H]2C(Cc3ccc(O)cc3)NC3(C(=O)Nc4ccc(F)cc43)[C@@H]2C(=O)N1c1ccccc1 (stereo partly drawn),i
Cc1ccc(N2CC(C(=O)NCCc3ccc(S(N)(=O)=O)cc3)CC2=O)cc1 (stereo not drawn),0.2
CCOC(=O)c1[nH]c2ccc(OC)cc2c1NC(=O)NC(C)C,i
Cc1nnc(SCc2ccccc2)n1N,1.2
O=C(CN1C(=O)COc2ccccc21)Nc1ccc2c(c1)OCCO2,i
CCCC(=O)Nc1ccc(N2CCN(C(=O)c3ccccc3C)CC2)cc1,i
O=C1CSCC(=O)N1c1ccccc1,i
Cc1nn(C(=O)c2ccco2)c(C)c1Sc1ccc(Br)cc1,i
O=C(Cc1ccccc1[N+](=O)[O-])NCc1ccccc1Cl,i

# Another view of four compounds above.
structure | H5N1 antiviral
O=C1Nc2cc(C(=O)N3CCN(Cc4ccccc4)CC3)ccc2SC1N1CCOCC1 (stereo not drawn) | i
O=C1[C@@H]2C(Cc3ccc(O)cc3)NC3(C(=O)Nc4ccc(F)cc43)[C@@H]2C(=O)N1c1ccccc1 (stereo partly drawn) | i
Cc1ccc(N2CC(C(=O)NCCc3ccc(S(N)(=O)=O)cc3)CC2=O)cc1 (stereo not drawn) | 0.2
CCOC(=O)c1[nH]c2ccc(OC)cc2c1NC(=O)NC(C)C | i

# Later entries
SMILES,H5N1 antiviral
COc1ccccc1C1/C(=C(/O)c2ccc(OC(C)C)cc2)C(=O)C(=O)N1c1cc(C)on1 (stereo not drawn),1.2
O=C(COC(=O)C12CC3CC(CC(O)(C3)C1)C2)Nc1ccccc1OC(F)F,0.1
CC1=C(C(N)=O)C(c2ccccc2F)NC(=O)N1 (stereo not drawn),i
CCCn1nc2cc(C(=O)NCc3ccc(C)cc3)ccc2c1OC,0.0
CCc1cc2c(N[C@@H](C)C(=O)O)ncnc2s1,i
O=C(CN1C(=O)c2ccccc2C1=O)NCC(=O)OCC(=O)c1ccc(Br)cc1,2.0
CCCCOc1ccc2ccccc2c1C=O,0.2
Cc1ccc2nc(SCC(=O)N(CC(C)C)c3c(N)n(CC(C)C)c(=O)[nH]c3=O)[nH]c2c1,i
COc1ccc(N(CC(=O)Nc2ccc(OC)c(Cl)c2)S(=O)(=O)c2c(C)noc2C)cc1,i
CC(N)Cc1c[nH]c2cc3c(cc12)OCCO3 (stereo not drawn),0.2
Cc1cccc(OC(=O)N2CCOCC2)c1,i
O=C1CCCc2nc(N3CCc4ccccc43)ncc21,1.3
CCOC(=O)c1nc(-c2ccc3c(c2)OCO3)[nH]c1C,0.1

# Arranged by formula weight (descending): 3 of the compounds above
SMILES,H5N1 antiviral
COc1ccc(N(CC(=O)Nc2ccc(OC)c(Cl)c2)S(=O)(=O)c2c(C)noc2C)cc1,i
COc1ccccc1C1/C(=C(/O)c2ccc(OC(C)C)cc2)C(=O)C(=O)N1c1cc(C)on1 (stereo not drawn),1.2
CCOC(=O)c1nc(-c2ccc3c(c2)OCO3)[nH]c1C,0.1
